A488 autofl: qHTS Assay for Spectroscopic Profiling in A488 Spectral Region; 0.1% of 59,000 active; compound autofluorescence, A488 spectral region, dye equivalency; hits give high values; max dye equivalency, M; AID 591, 2007; active = above 10 nM dye equivalent; inconclusive = 1 to 10 nM; inactive = 1 nM or less; about half of its hits are not listed in these tables;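 also: highest value over a series up to 38 µM; compound alone in buffer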
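Compounds pin-transferred into 100 mM Tris buffer, pH 8.0, incubated 15 min at room temperature, then imaged with 480 nm excitation/540 nm emission filters. Fluorescence converted to Alexa 488 dye-equivalent concentration via an on-plate six-point A488 standard curve.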
Resorufin autofl: qHTS Assay for Spectroscopic Profiling in Resorufin Spectral Region. Compound fluorescence, resorufin region 547/598 nm, buffer; hits give high values. max dye-equivalent concentration, M. 0.04% of 59,000 active. AID 588, 2007; active = above 10 nM dye equivalent; inconclusive = 1 to 10 nM; inactive = 1 nM or less; a few of its hits are not listed in these tables; also: highest value over a series up to 38 µM
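Compounds in 100 mM Tris buffer, pH 8.0, incubated 15 min at room temperature, then read with 547 nm excitation and 598 nm emission filters. Fluorescence was converted to dye-equivalent concentration using an on-plate six-point resorufin standard curve.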
AID923: qHTS Assay for Allosteric/Competitive Inhibitors of Caspase-1: Spectroscopic Profiling in AFC Spectral Region; Potency, µM (titrated, usually from 57.5 µM), for the others: at the highest dose fluorescence increase, most hits filed as activators; compound fluorescence, AFC spectral region (405/520 nm); almost no hit is shown here; 1.1% of 75,000 active; active = well fitted activation curve with a large enough effect; inconclusive = small, poorly fitted or top-dose-only effect;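 also: potency is read from the fitted curve at half-maximal effect; 0% is about no effect; scaled to a free AFC standard on each plate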
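Baseline compound fluorescence (AFC region, 405 nm ex/520 nm em) taken from the intercept of kinetic reads with 50 nM caspase-1 and 5 uM Ac-WEHD-AFC; normalized to an on-plate AFC standard curve; compounds titrated up to 57 uM.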
A647 fluor: qHTS Assay for Spectroscopic Profiling in A647 Spectral Region; Compound fluorescence, A647 channel (570/671 nm), Tris buffer; max dye-equivalent concentration, M; 59,000 tested, under 10 active; active means above 1 µM dye equivalent; inconclusive means 0.1 to 1 µM; inactive means 0.1 µM or less;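 also: values scaled relative to a standard on each plate; highest value over a series up to 38 µM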
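Fluorescence read (570 nm ex, 671 nm em) after 15 min RT incubation of compounds in 100 mM Tris buffer, pH 8.0; values expressed as dye-equivalent concentration against a six-point A647 standard series on each plate.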
TSHR ag: qHTS Assay for Agonists of the Thyroid Stimulating Hormone Receptor | Thyrotropin receptor (Homo sapiens), P16473 | Potency, µM (series often up to 57.1 µM), without a hit: at the highest dose activation, most hits filed as activators | HEK293-CNG-TSHR cells (CNG channel as cAMP sensor), membrane potential dye, cAMP | 0.48% of 73,000 active; active = well fitted activation curve of enough size with the parental cells flat; inconclusive = any curve in the parental cells; inactive = parental cells flat and receptor cells flat or falling; also: potency is read from the fitted curve at half-maximal effect; % of control where 0% means no effect; weak receptor curves with flat parental cells got no call and are not listed
Target sequence (P16473 whole entry, looked up): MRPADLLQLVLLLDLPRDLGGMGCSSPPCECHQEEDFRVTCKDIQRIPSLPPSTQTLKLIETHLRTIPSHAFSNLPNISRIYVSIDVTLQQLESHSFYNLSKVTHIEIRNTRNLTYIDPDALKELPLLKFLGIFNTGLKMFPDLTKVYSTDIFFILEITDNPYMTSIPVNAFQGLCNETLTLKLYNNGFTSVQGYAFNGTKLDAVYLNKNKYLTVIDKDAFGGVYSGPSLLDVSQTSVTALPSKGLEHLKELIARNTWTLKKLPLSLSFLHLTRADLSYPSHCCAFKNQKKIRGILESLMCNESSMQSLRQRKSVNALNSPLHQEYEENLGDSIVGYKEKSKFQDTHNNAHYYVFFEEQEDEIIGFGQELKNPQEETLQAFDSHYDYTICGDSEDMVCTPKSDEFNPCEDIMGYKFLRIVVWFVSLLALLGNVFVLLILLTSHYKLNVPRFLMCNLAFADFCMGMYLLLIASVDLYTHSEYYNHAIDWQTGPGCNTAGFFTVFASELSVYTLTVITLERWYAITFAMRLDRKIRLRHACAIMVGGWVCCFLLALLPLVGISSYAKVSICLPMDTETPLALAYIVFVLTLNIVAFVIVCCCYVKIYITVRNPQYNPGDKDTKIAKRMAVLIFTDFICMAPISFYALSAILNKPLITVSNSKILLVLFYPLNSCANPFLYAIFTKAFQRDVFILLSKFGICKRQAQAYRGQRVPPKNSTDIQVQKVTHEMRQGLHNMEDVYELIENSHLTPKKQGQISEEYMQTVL
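HEK 293 cells stably expressing TSHR and a cAMP-gated CNG channel; parental CNG-only cells as counterscreen. Cells preloaded 60 min with membrane potential dye plus 100 uM RO 20-1724, then compound 30 min; fluorescence read at 590 nm.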
Active calls of the source: *; i = inactive; ? = inconclusive; · = not tested or not shown; [ ] = dose if it differs, or a comment. Not all compounds are listed; the hit share may differ from the screen's.

SMILES	A488 autofl	Resorufin autofl	AID923	A647 fluor	TSHR ag
COC(=O)c1ccc(Cl)c(NC(=O)CN2CCOCC2)c1	i	i	-1.9%	1e-09	-4%
CN1CC(=O)NC1=NC(=O)C12CC3CC(CC(C3)C1)C2	i	i	-1.8%	3.5e-09	15%
CCOc1ccc(NC(=O)CSc2nc3cccnc3n2CCOC)cc1	i	i	0.9%	1e-09	0%[11.4 µM]
Cn1c(SCC(=O)NCc2ccc3c(c2)OCO3)nnc1-c1cccs1	i	i	0.7%	3.7e-08	6%
CCOC(=O)c1[nH]c2cc3c(cc2c1NC(=O)CN1CCCCC1C)OCO3 (stereo not given)	i	i	·	3.4e-09	·
CC(=O)Nc1ccc(NS(=O)(=O)c2cc(C)sc2C)cc1	i	i	2.2%	4.6e-09	-1%[11.4 µM]
CCCCc1c(O)c2ccccc2[nH]c1=O	i	i	1.0%	3.7e-08	3%
Cc1ccc(O)c(-c2cc3ccccc3[nH]2)c1	·	·	1.3%	·	-15%[11.4 µM]
CCOC(=O)CNC(=O)Cn1cnc2sc(C)c(S(=O)(=O)N3CCC(C)CC3)c2c1=O	i	i	1.6%	1e-09	14%
O=C(CSc1nnnn1Cc1ccccc1)N1CCN(c2ccccc2)CC1	i	i	1.2%	1.2e-08	7%
Cc1cc(C)cc(NC(=O)Cn2ncn3c(cc4ccccc43)c2=O)c1	i	i	-1.3%	2.6e-08	?
COc1ccc(Nc2cc(C)nc3ncnn23)c(OC)c1	·	·	1.6%	·	3%
COc1ccccc1N(CC(=O)NCc1ccccn1)S(C)(=O)=O	·	·	0.9%	·	2%
Cc1nnc(SCC(=O)NC(C)c2ccccc2)[nH]c1=O (stereo not given)	·	·	-2.0%	·	0%[11.4 µM]
CCCOc1ccc2oc(=O)c3c(c2c1)CCCN3C(=O)CN(C)Cc1ccccc1	i	i	-0.1%	4.7e-09	?
COc1ccc(CCNC(=O)Cc2nn(C)c(=O)c3ccccc23)cc1OC	i	i	0.5%	9e-09	7%
COc1ccc(-c2[nH]ncc2-c2ccc3c(c2)OCCO3)c(O)c1	i	i	-3.1%	1e-09	10%
O=c1[nH]c2cc(C(F)(F)F)ccc2n1-c1cc(C(F)(F)F)ccc1O	i	i	-3.5%	4.2e-09	-34%[inhibitor]
O=C(CSc1nnnn1-c1ccccc1)CC(=O)Nc1ccc(Cl)cc1	i	i	1.0%	1.3e-08	5%
O=C(c1c(O)c2ccccc2oc1=O)C1CCC1	i	i	2.7%	2.5e-09	16%
CC1CCc2nn(CC(=O)N3CCN(C(=O)c4ccco4)CC3)cc2C1 (stereo not given)	·	·	0.4%	·	4%
COc1ccccc1OCCCn1cc(C#N)c2ccccc21	i	i	1.0%	6e-08	·
Cn1c(=O)c2c(nc(-n3ccnc3)n2Cc2ccccc2)n(C)c1=O	i	i	0.4%	8.2e-08	4%
COC(=O)c1c(N)n(-c2ccc(N3CCOCC3)cc2)c2nc3ccccc3nc12	i	i	2.9%	2.4e-08	-2%
CN(C)Cc1ccccc1-c1nccc(NCc2cccs2)n1	i	i	1.3%	1.5e-09	?
Cc1cccc2sc(NC(=O)CCNS(=O)(=O)c3cccs3)nc12	i	i	1.6%	1e-09	-11%
N#CCCn1c(=O)cnc2cnc(N3CCOCC3)nc21	i	i	17%	2.8e-09	6%
O=C1CC(=O)N(Cc2cccs2)C(=O)N1	i	i	-1.6%	2.9e-08	-10%
Cc1cc(=O)cc(C)n1-c1ccc2c(c1)nc(C)n2-c1ccccc1	i	i	0.0%	1.6e-08	9%
COc1ccc(Cn2ccnc2)cc1Br	i	i	·	5.2e-08	·
CN(C)C(=O)c1ccc(-c2cc(NCc3cccnc3)ncn2)cc1	i	i	2.6%	9.6e-09	0%
COc1cc(C(=O)NC2CC3CCCC(C2)N3C2CC2)cc(OC)c1OC (stereo not given)	i	i	2.3%	1e-09	-1%
CN(C)S(=O)(=O)Nc1ccc2c(c1)OCO2	i	i	0.2%	1e-09	1%
CCOC(=O)c1cnc2ccc(Cl)cc2c1N1CCN(C)CC1	i	i	1.4%	1e-09	21%
Cn1c(COc2ccc(Cl)cc2)nnc1SCc1ncc(-c2ccccc2)o1	i	i	-0.4%	1.7e-08	?
CCCCOc1ccc(C(C)(O)CCN2CCOCC2)cc1 (stereo not given)	i	i	1.0%	1e-09	6%
COc1ccc(Br)cc1C(=O)Nc1ccc(N2CCN(S(C)(=O)=O)CC2)cc1	i	i	3.9%	1e-09	-33%
CN(C)Cc1ccccc1-c1ccc2ncnc(NC3CC3)c2c1	i	i	0.5%	1e-09	5%
CCCCCCNS(=O)(=O)c1nc2nc(C)cc(C)n2n1	·	·	2.8%	·	-1%
Cc1nc2c3ccccc3n(CC#N)c(=O)n2n1	·	·	3.0%	·	10%
C/C(NC(=O)c1cccs1)=C1\C(=O)C[C@@H]2[C@H]1C2(C)C	i	i	·	7.4e-08	·
O=C(c1cc(-c2ccco2)on1)N1CCN(c2ccccc2)CC1	·	·	-1.1%	·	16%
Cc1oc(C(C)(C)C)c(CN2CCCC2)c1C(=O)O	i	i	2.2%	1e-09	-1%
COc1ccccc1-c1nn2c(-c3ccccc3Cl)nnc2s1	i	i	0.1%	1e-09	?
CCOc1ccccc1NC(=O)CSc1nnnn1-c1ccc(C(=O)OC)cc1	i	i	1.5%	1e-09	?
Cc1sc(NC(=O)c2cccs2)c(C(N)=O)c1C	·	·	0.7%	·	-24%
C=CCOC(=O)C(C#N)c1nc2ccccc2nc1N1CCN(c2ccccc2OC)CC1 (stereo not given)	i	i	5.2%	5.1e-09	20%
Cc1nc(CCNC(=O)c2cccs2)cs1	i	i	0.0%	1e-09	10%[11.4 µM]
O=C(Nc1ccc(N2CCOCC2)c(Cl)c1)c1ncn[nH]1	i	i	-0.2%	1e-09	-7%
COC(=O)CN1C(=O)N(c2ccccc2)C(N(O)C(=O)Nc2ccccc2)C1(C)C (stereo not given)	i	i	-1.8%	3.1e-08	1%
CC(C)CCNC(=O)C(C)N(C(=O)Cn1nnc(-c2ccc(F)cc2)n1)C1CCCC1 (stereo not given)	i	i	1.6%	1e-09	3%
Cc1nn(C(C)(C)C)c(OC(=O)c2ccc3c(c2)OCO3)c1S(=O)(=O)c1ccccc1	i	i	1.0%	1.9e-08	?
COc1ccc(CNC(=O)C2CCN(S(=O)(=O)c3cc(OC)ccc3OC)CC2)cc1	i	i	-1.5%	3.3e-08	·
CCc1nnc(NC(=O)CSc2nc3c(c(=O)n2-c2ccccc2OC)SCC3)s1	i	i	1.5%	1e-08	10%
Cc1ccc(C(=O)NCC(=O)O)cc1S(=O)(=O)N1CCCCC1	i	i	-1.6%	2.8e-08	-9%
COc1ccc(C(O)P(=O)(OC2CCCCC2)c2ccc(N(C)C)cc2)cc1OC (stereo not given)	i	i	1.8%	2e-09	-3%
CC1(C)Nc2ccc(O)cc2-c2c1ssc2=S	i	i	·	3.7e-08	·
CCOC(=O)C1CCN(C(=O)C2CCN(S(=O)(=O)c3c(C)noc3C)CC2)CC1	i	i	0.8%	2.9e-09	5%
O=C(NCCCN1CCOCC1)c1ccc(Cc2nc3ccccc3[nH]2)cc1	·	·	3.3%	·	-4%
O=C1CC(c2ccccc2)CC(O)=C1C=NCCCN1CCOCC1 (stereo not given)	i	i	0.6%	1e-09	1%

The results go on.
SMILES	A488 autofl	Resorufin autofl	AID923	A647 fluor	TSHR ag
Cc1occc1C(=O)Nc1cccc(C(=O)NCc2ccccc2)c1	i	i	-3.2%	3.3e-09	-5%
C=C1CSc2nc(=O)c3c4c(sc3n21)CCCC4	·	·	-0.4%	·	-9%
CCOC(=O)c1c(C)[nH]c(C(=O)COC(=O)c2ccccc2NC(=O)c2ccco2)c1C	i	i	0.4%	1.4e-08	2%
COc1cccc(-c2nc(S(=O)(=O)c3ccccc3)c(N3CCOCC3)o2)c1	i	i	-1.3%	1.5e-09	?
O=C(COc1ccccc1)Nc1nn[nH]n1	i	i	-0.6%	1e-09	-5%
CCCn1nc(NS(C)(=O)=O)c2cc3cccc(C)c3nc21	i	i	1.3%	1e-09	5%
CC(=O)OCC1=C(C(=O)O)N2C(=O)[C@@H](NC(=O)Cc3cccs3)[C@H]2SC1	i	i	·	6.9e-09	·
COc1cccc(C(CC(=O)NCCN2CCOCC2)NS(=O)(=O)c2ccc(C)cc2)c1OC (stereo not given)	i	i	1.0%	2.2e-08	4%
CCCCNCCCOc1cccc(Cl)c1	·	·	3.4%	·	17%
O=C(CSCSCC(=O)NCC1CCCO1)NCC1CCCO1 (stereo not given)	i	i	1.7%	2.7e-08	-1%
CCCc1cc(=O)n2[nH]c(C)nc2n1	i	i	2.7%	1e-09	-15%
COCCCn1c2nc3ccccc3nc2c2c(=O)n(-c3ccccc3OC)cnc21	i	i	3.2%	1e-09	9%
CCNc1nc(NCC)nc(OCCNS(=O)(=O)c2cc(C)ccc2C)n1	·	·	-1.0%	·	7%
O=C(CN1C(=O)CCSc2ccccc21)Nc1ccccc1	·	·	0.8%	·	13%
COc1cccc(Oc2cn[nH]c2-c2ccc(O)cc2O)c1	i	i	-0.4%	2.3e-08	?
CCCCn1c(SCC(=O)N2CC(=O)Nc3ccccc32)nnc1-c1ccoc1C	i	i	-0.9%	4.8e-08	?
CCOC(=O)C1CCCN(c2c(NCCCN3CCCC(C)C3)c(=O)c2=O)C1 (stereo not given)	·	·	0.0%	·	4%
Fc1cccc(-c2cc3nc4c(c(N5CCOCC5)n3n2)CCCC4)c1	i	i	-0.8%	3.5e-09	12%[11.4 µM]
CCc1cc2c(nc1CC)CCN(CC/C(C)=N/OC[C@@H](C)[C@H](OCc1ccccc1)C(C)C)C2	·	·	-1.7%[11.5 µM]	·	3%[11.4 µM]
CC(C)C1=C2CCCCC2NC(=O)N1 (stereo not given)	i	i	12%	1.6e-08	-2%
CC1=C(C(=O)OC(C)C)C(C)C(C(=O)OC(C)C)=C(C)N1	i	i	1.1%	1e-09	12%
CC(C)Oc1ccc(C2NC(=O)NC2=O)cc1 (stereo not given)	i	i	-0.2%	1e-09	-12%
CN(C(=O)CN1CCC(NC(=O)C2CCCCC2)CC1)C1CCCCC1	i	i	0.8%	1.3e-08	0%[11.4 µM]
CC(C)C(=O)Nc1nnn(C)n1	i	i	-1.4%	5e-08	·
Cc1onc(-c2ccccc2)c1C(=O)NCc1ccco1	·	·	2.2%	·	?

Part of the list above in order of molar mass, falling.
SMILES	A488 autofl	Resorufin autofl	AID923	A647 fluor	TSHR ag
CCc1cc2c(nc1CC)CCN(CC/C(C)=N/OC[C@@H](C)[C@H](OCc1ccccc1)C(C)C)C2	·	·	-1.7%[11.5 µM]	·	3%[11.4 µM]
CCOC(=O)c1c(C)[nH]c(C(=O)COC(=O)c2ccccc2NC(=O)c2ccco2)c1C	i	i	0.4%	1.4e-08	2%
O=C(CSCSCC(=O)NCC1CCCO1)NCC1CCCO1 (stereo not given)	i	i	1.7%	2.7e-08	-1%
CC(C)Oc1ccc(C2NC(=O)NC2=O)cc1 (stereo not given)	i	i	-0.2%	1e-09	-12%
CCCc1cc(=O)n2[nH]c(C)nc2n1	i	i	2.7%	1e-09	-15%
CC(C)C(=O)Nc1nnn(C)n1	i	i	-1.4%	5e-08	·

Source: PubChem BioAssay
